# Screening results from PubChem BioAssay.
# Vif TR-FRET: inhibitors of Vif binding to APOBEC3G peptide, primary screen, biochemical, TR-FRET, GST-Vif 1-94, biotin-A3G peptide, dose response retest (AID 1117319) | inhibition, %; hits with a dose series show IC50 in µM | 0.57% of 260,000 active | TR-FRET GST-Vif / biotin-A3G peptide binding; higher % means a stronger effect; test concentration not given here; strong numbers were not always called active;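 active = above the screen mean plus three standard deviations and confirmed in dose response; inconclusive = results disagree or hit not tested in dose response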;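 also: Vif residues 1-94 fused to GST binding biotinylated APOBEC3G peptide 110-148; 0% = full assay without inhibitor and 100% = GST in place of GST-Vif; retest series ran down from 100 µM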
# AF4-AF9 inh: MLL-AF4/AF9 protein interaction inhibition. P42568. AlphaScreen, biotin-AF4 peptide binding to FLAG-AF9. inhibition, % at 10 µM. 0.47% of 350,000 active. AID 651704;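 active = every replicate reaching a set inhibition limit, whatever the replicate mean, cut at about 25% in these data; inconclusive = mean inhibition reaches that limit but some replicates miss it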;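 also: 0% = plate neutral control median and 100% = total signal loss; the record names both 10 and 1 µM as test concentration; the first replicate is given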
# Target sequence (P42568 whole entry, looked up): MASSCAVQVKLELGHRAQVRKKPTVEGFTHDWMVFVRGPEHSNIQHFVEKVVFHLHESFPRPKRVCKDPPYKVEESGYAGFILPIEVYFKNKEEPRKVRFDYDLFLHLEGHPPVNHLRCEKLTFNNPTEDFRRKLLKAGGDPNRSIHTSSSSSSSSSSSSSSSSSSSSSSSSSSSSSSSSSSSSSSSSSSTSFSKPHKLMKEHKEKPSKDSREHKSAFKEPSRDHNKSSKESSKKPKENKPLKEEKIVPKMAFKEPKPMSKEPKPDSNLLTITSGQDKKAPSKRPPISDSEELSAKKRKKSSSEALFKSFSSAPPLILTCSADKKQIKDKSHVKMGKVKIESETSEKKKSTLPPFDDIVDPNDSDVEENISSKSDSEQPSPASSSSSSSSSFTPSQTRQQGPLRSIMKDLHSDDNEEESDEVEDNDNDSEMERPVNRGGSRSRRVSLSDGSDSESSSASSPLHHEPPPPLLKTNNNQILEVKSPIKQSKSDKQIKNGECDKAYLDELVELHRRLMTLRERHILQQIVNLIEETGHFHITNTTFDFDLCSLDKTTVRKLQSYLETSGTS
# * hit, by the source's call; ? = inconclusive; & = joins results of further samples. Some of the compounds tested (hit frequency here may not be typical).
# Fields – Vif TR-FRET, AF4-AF9 inh
> OC(CNc1ccnc2cc(Cl)ccc12)CNC1CCCCC1 (centres undefined)
 : -14%, 4.7
> Cc1ccccc1OCCOC(=O)c1cc(S(=O)(=O)N2CCOCC2)ccc1C
 : -1%, -3.1
> O=C(OCC1OC(n2ccc(=O)[nH]c2=O)C2OC12)c1ccccc1 (centres undefined)
 : -8%, 0.8
> COc1ccc2nc(N3C(=O)C(O)=C(C(=O)c4ccco4)C3c3ccc(C)o3)sc2c1 (centres undefined)
 : 6%, -0.9
> CNc1ncnc2c1ncn2-c1ccccc1
 : -4%, -2.5
> O=C(c1ccc(S(=O)(=O)Nc2ccccc2F)cc1)N1CCCC1
 : 1%, -1.0
> Cc1cc(C)c(C)c(S(=O)(=O)N2CCC(C(=O)NC3=NCCS3)CC2)c1C
 : -3%, -1.3
> O=[N+]([O-])c1cc2c(c([N+](=O)[O-])c1)Nc1ccccc1O2
 : 9%, 2.4
> CCOC(=O)C1CCC(=O)C1 (centres undefined)
 : -8%, -1.5
> COc1ccccc1NC(=O)c1ccc2c(=O)n3c(nc2c1)CCC3
 : 0%, -0.4
> CC(C)C1C(=O)N(Cc2cn(CCC3OCCCO3)nn2)CCS(=O)(=O)N1Cc1ccc(-c2ccc(Cl)nc2)cc1 (centres undefined)
 : -1%, 1.3
> CC(=O)c1c(C)[nH]c(C(=O)Nc2ccc(N3CCCCCC3)cc2)c1C
 : 1%, 13
> COc1ccc(-c2csc(NC(=O)C3=COCCO3)n2)cc1OC
 : -4%, 2.2
> COc1ccccc1NS(=O)(=O)c1ccc(C(=O)NCCCN2CCOCC2)cc1
 : -9%, 4.3
> S=C1CC2CCCC(C2)N1 (centres undefined)
 : 0%, -3.5
> CN(Cc1ccc(OC(F)F)cc1)C(=O)c1cccc(S(=O)(=O)N2CCN(Cc3ccccc3)CC2)c1
 : -1%, -2.0
> COc1ccccc1NS(=O)(=O)c1cc(C(=O)N2CCCC2)ccc1F
 : 4%, -11
> CCN(CC(=O)NCc1cccs1)C(=O)/C=C/c1cc(OC)c(OC)c(OC)c1
 : 1%, 0.9
> N#Cc1ccc(CN2CCN(C(=O)CNC(=O)Cc3cccc4ccccc34)CC2)cc1
 : -7%, 3.0
> COc1ccc(S(=O)(=O)N(C)C[C@@H]2OCCCC[C@@H](C)Oc3ccc(NC(=O)NC(C)C)cc3C(=O)N([C@H](C)CO)C[C@@H]2C)cc1
 : 5%, 2.9&-3.9
> CCOc1ccc(C(=O)CCC(=O)NCC(=O)Nc2ccc(F)c(F)c2F)cc1
 : -5%, -4.9
> CCOC(=O)c1cc(-c2sc(NC(=O)c3ccccc3)nc2C)n(Cc2ccccc2)n1
 : 1%, 0.6
> O=C(COC(=O)c1cccc(Cl)c1Cl)NC1CCCCCC1
 : 1%, -0.5
> O=C(NCCCOC(=O)c1ccccc1)c1ccccc1
 : -6%, 3.3
> CC1CCCCN1C(=S)Nc1ccc(S(=O)(=O)N2CCCCC2)cc1 (centres undefined)
 : 1%, 2.4
> COc1cc(N(C)C)ccc1C=c1c2ccccc2n2c1cc(-c1ccccc1)[n+]2C
 : 5.3µM*, 84*
> Cc1ccc(S(=O)(=O)N(CC(=O)NC2CC3CCC2C3)c2ccccc2)cc1 (centres undefined)
 : 1%, -2.9
> C[C@H]1CN([C@@H](C)CO)C(=O)CCCn2nncc2CO[C@H]1CN(C)C(=O)c1ccccc1
 : -1%, -0.9&-0.6
> COC(=O)C=C1CCC2C3CC(F)C4(O)CC(=O)CCC4(C)C3C(=O)CC12C (centres undefined)
 : -1%, 0.0
> CC(C)CCn1nc(C(=O)OCC(=O)NC(C)c2ccccc2)c2ccccc2c1=O (centres undefined)
 : -2%, -8.8

# AF4-AF9 inh: what is marked active above.
# Fields – Vif TR-FRET, AF4-AF9 inh
> COc1cc(N(C)C)ccc1C=c1c2ccccc2n2c1cc(-c1ccccc1)[n+]2C
 : 5.3µM*, 84*

# Next part
# Fields – Vif TR-FRET, AF4-AF9 inh
> CCCn1c(N)c(C(=O)CN(C)CC(=O)Nc2cc(C)ccc2C)c(=O)[nH]c1=O
 : 2%, 0.1
> O=c1[nH][nH]c(=O)c2c1[nH]c(=S)n2Cc1ccccc1
 : 5%, 0.8
> C[C@H]1CN([C@@H](C)CO)C(=O)CCCn2nncc2CO[C@@H]1CN(C)C(=O)c1ccncc1
 : -3%, -8.9&-12
> O=S(=O)(Nc1ccccc1)N1CCCCC1
 : -6%, -1.1
> OCc1nc2ccccc2n1CCCc1ccccc1
 : 0%, 1.0
> COc1ccc(/C=C(/NC(=O)c2ccc(Br)cc2)C(=O)Nc2cccc(C(=O)O)c2)cc1
 : -5%, -1.6
> CCN(C(=O)COC(=O)C1=COCCO1)c1c(N)n(Cc2ccccc2)c(=O)[nH]c1=O
 : 0%, -0.3
> O=C(NCc1ccc2c(c1)OCO2)C(=O)NCC1OCCCN1S(=O)(=O)c1ccccc1 (centres undefined)
 : 3%, -1.7
> CC(C)OCCCNC(=S)N1CCC(C(=O)c2ccc(F)cc2)CC1
 : -2%, 0.4
> Cc1nc(N)nc(N(C)c2ccccc2)c1Br
 : -5%, -0.7

# Structures shown so far containing two or more sulfur atoms (2):
# Fields – Vif TR-FRET, AF4-AF9 inh
> Cc1cc(C)c(C)c(S(=O)(=O)N2CCC(C(=O)NC3=NCCS3)CC2)c1C
 : -3%, -1.3
> CC1CCCCN1C(=S)Nc1ccc(S(=O)(=O)N2CCCCC2)cc1 (centres undefined)
 : 1%, 2.4

# (further entries)
# Fields – Vif TR-FRET, AF4-AF9 inh
> O=S(=O)(O)c1ccc(NN=Cc2ccccc2O)cc1
 : 14%, -3.6
> CCc1cccc(CC)c1N1C(=O)CC(Sc2ccccc2N)C1=O (centres undefined)
 : 1%, -5.3
> Cc1ccc(OCCNC(=O)c2ccccc2OCc2c(C)noc2C)cc1
 : -2%, -1.8
> COc1ccc(C2=CCCCCC2)cc1OC
 : 3%, -3.4
> C1CC(=NN=C2CCSCC2)CCS1
 : -10%, 7.0
> CN(CC(=O)Nc1ccc(F)cc1)C(=O)CN1C(=O)NC2(CCCC2)C1=O
 : -1%, 0.0
> CCOC(=O)C1CCCN(C(=O)c2ccc(-c3ccccc3Cl)o2)C1 (centres undefined)
 : -9%, -11
> COc1ccccc1NC(=O)C(C)OC(=O)C(C)SCC(=O)Nc1ccc(C)cc1 (centres undefined)
 : 8%, 5.4
> COc1ccc(/C=C(/NC(=O)c2ccc(Br)o2)C(=O)Nc2cccc(C(=O)O)c2)cc1
 : -1%, -0.4
> CC1CN(Cc2ccco2)C(=S)N(c2ccccc2)C1=O (centres undefined)
 : 7%, -0.5

# Further compounds follow:
molecule,Vif TR-FRET,AF4-AF9 inh
COc1ccc(N2CCN(CCCn3cnc4c(OC)ncnc43)CC2)cc1,10%,0.5
O=C(O)C(C1CCCCC1)C1(O)CCCC1 (centres undefined),-1%,5.8
COc1ccc([C@H]2N[C@]3(CCCN(Cc4ccco4)C3=O)[C@H]3C(=O)N(Cc4ccccc4)C(=O)[C@@H]23)cc1,-2%,2.3
CCN(C[C@H]1N[C@@](CC)(C(=O)OC)[C@H]2C(=O)N(Cc3ccccc3)C(=O)[C@@H]12)C(C)=O,-3%,0.5
C=C1[C@H]2O[C@H]2[C@@H](OC(C)=O)[C@@]2(C)[C@@H](OC(C)=O)C[C@@H](OC(C)=O)[C@@](C)(O)[C@@H]2[C@@H](OC(C)=O)[C@@]2(O)[C@@H](C)C(=O)O[C@H]2[C@H]1Cl,-2%,-3.8
O=S(=O)(SC1=NCCN1)c1ccccc1,-16%,-0.9
Nc1ncnc2c1ncn2[C@@H]1O[C@H](CNS(=O)(=O)c2ccc3c(c2)CCN(C(=O)C(F)(F)F)C3)[C@@H](O)[C@H]1O,-2%,-5.4
COc1ccc(Cl)cc1C(=O)OCC(=O)c1c(N)n(C)c(=O)n(C)c1=O,-6%,2.1
CC(OC(=O)c1cccc(-n2cnnn2)c1)C(=O)Nc1ccc(F)c(F)c1F (centres undefined),-4%,3.7
COc1ccc(NC(=O)c2ccc(OCC3CCCO3)cc2)cc1Cl (centres undefined),2%,0.9
COc1ccc(CNCCS(=O)(=O)NCc2ccc(OC)cc2)cc1,8%,-1.4
COc1cccc(/C=C/C(=O)OCC(=O)Nc2ccc3c(c2)OCCO3)c1,-5%,-3.3
CN(N=Nc1ccccc1C(=O)O)C1CCCCC1,3%,-4.7
COc1ccc2ccc(OCC(=O)NCC3CCCO3)cc2c1 (centres undefined),-2%,-6.6
COC(=O)c1cc([N+](=O)[O-])c(C)c(C)n1,-3%,-2.4
C=CCN(C(=O)CSc1nnnn1C)c1nc(-c2ccccc2)cs1,-11%,0.0
OC(c1ccccc1)C(NCCNCc1ccccc1)c1ccccc1 (centres undefined),-13%,4.9
Cc1cccc(CN(C)C[C@@H]2OCc3cnnn3CCCC(=O)N([C@H](C)CO)C[C@H]2C)c1,5%,-0.3&-0.7
CC(C)(C)N(Cc1ccccc1)C(=O)COC(=O)Cn1[nH]c(=O)c2ccccc2c1=O,3%,-4.4
CCCCNc1nc2c(c(=O)[nH]c(=O)n2C)n1CCCc1ccccc1,0%,1.6
C1CCN(CC2CCCCN2)CC1 (centres undefined),-5%,-1.5
C[C@H]1CN([C@@H](C)CO)C(=O)CCCn2nncc2CO[C@@H]1CN(C)Cc1ccncc1,5%,-1.5&-0.1
Cc1ccccc1S(=O)(=O)Nc1ncnc2sccc12,-7%,0.8
O=C(c1cccs1)N1CCN(S(=O)(=O)c2cccc(Cl)c2Cl)CC1,-4%,-8.4
Cc1nn(-c2ccccc2)nc1C(=O)Nc1cccc(C(=O)NC2CC2)c1,-5%,-1.3
CCCC(C)Sc1nc2c([nH]1)c(=S)n(C)c(=O)n2C (centres undefined),-9%,3.6
CCOC(=O)/C=C1/SCC(=O)N1Cc1ccc(Br)cc1,-4%,-5.3
CCS(=O)(=O)C1C(=O)N(C)C(S(=O)(=O)CC)C(=O)N1C (centres undefined),-1%,-1.0
CC[C@]12c3[nH]c4ccc(Cl)cc4c3CCN1C(=O)[C@@H](CC(=O)NC(C)(C)C)C[C@@H]2C(=O)N1CCN(C(=O)c2ccco2)CC1,-5%,1.1
CN(C)S(=O)(=O)c1cccc(NC(=O)c2cccc(S(=O)(=O)N3CCCCCC3)c2)c1,-1%,-0.6
Clc1ccc(NN(Cc2ccncc2)c2ccc(Cl)cc2)cc1,-5%,0.7
COc1ccccc1N(C)S(=O)(=O)c1ccc(C(=O)Nc2nnc(C)s2)cc1,3%,-10
O=C(CCN1CCC2CCC(C2)C1)c1ccccc1 (centres undefined),-4%,0.9
CC(C)(CC1(C)NC(=O)NC1=O)OCc1ccccc1 (centres undefined),-2%,3.0
COc1ccc(C(=O)COC(=O)CN2C(=O)NC3(CC(C)CC(C)(C)C3)C2=O)c(OC)c1 (centres undefined),-9%,0.6
COC(=O)[C@@]1(Cc2ccccc2)[C@H]2C(=O)N(C)C(=O)[C@H]2[C@H]2CN=C(SC)N21,2%,-2.1

# 3 structures out of the list, sorted by formula weight, falling:
molecule,Vif TR-FRET,AF4-AF9 inh
CC1CN(Cc2ccco2)C(=S)N(c2ccccc2)C1=O (centres undefined),7%,-0.5
O=C(O)C(C1CCCCC1)C1(O)CCCC1 (centres undefined),-1%,5.8
CNc1ncnc2c1ncn2-c1ccccc1,-4%,-2.5

# New compounds follow
molecule,Vif TR-FRET,AF4-AF9 inh
CC(C)Sc1nc(N)nc2c1ncn2C1OC(CO)C(O)C1O (centres undefined),-6%,-4.8
COc1cc(OC)nc(Oc2ccccc2C=O)n1,1%,-2.0
O=C(Cc1ccc(F)cc1)N[C@@H]1c2ccccc2CC[C@@H]1O,-7%,-0.5
CCCCN1C(=O)C(CC(=O)NCc2cccc3ccccc23)CC(C(=O)N2CCOCC2)=C1C (centres undefined),5%,-5.6
O=C(Nc1ccc(S(=O)(=O)NC2=NCCCCC2)cc1)c1cccc(OC(F)F)c1,5%,0.0
Cc1cn(CC(C)C)c(=O)n(-c2ccccc2)c1=O,2%,1.4
C#CCN(C[C@@H]1[C@@H](OC(=O)Nc2cccs2)[C@@H](OC(=O)Nc2cccs2)Cn2c(=O)n(CCCCCC)c(=O)n21)S(=O)(=O)c1ccc(C)cc1,4%,-1.3
O=C(COC(=O)C12CC3CC(CC(O)(C3)C1)C2)Nc1ccc(OC(F)F)cc1,3%,0.2
COc1cc(C#N)ccc1OCC(=O)Nc1cccc(S(=O)(=O)N(C)c2ccccc2)c1,7%,-1.5
CN(CC(=O)Nc1cc(Cl)ccc1-n1cncn1)Cc1ccccc1N1CCOCC1,1%,-1.2
C[C@H]1CN([C@@H](C)CO)C(=O)CCCn2nncc2CO[C@@H]1CN(C)C(=O)NC1CCCCC1,2%,-1.6&-1.3
O=C(Nc1ccc(C(=O)N2CCCC2)cc1)C1CCCCC1,0%,-0.9
O=c1c2ccccc2sc2nc(CCl)nn12,-2%,-1.6
O=C(Cc1cccc(NC(=O)C2CCCN(C(=O)C3CCCC3)C2)c1)Nc1ccc(C(=O)N2CCOCC2)cc1 (centres undefined),1%,-7.8
CN(C)CCNC(=O)c1cccc2nc3c(ccc4ccccc43)nc12,3%,?
Cc1ccc(C)c(NC(=O)CN(C)C(=O)c2ccccn2)c1,1%,0.2
CN(CCc1ccccc1)C(=O)c1cccc(NC(=O)Cc2cccc(NC(=O)C3CCCN(C(=O)CCc4ccccc4)C3)c2)c1 (centres undefined),-8%,-0.2

# 3 entries already listed, ordered by the number in Vif TR-FRET, rising.
molecule,Vif TR-FRET,AF4-AF9 inh
O=c1c2ccccc2sc2nc(CCl)nn12,-2%,-1.6
O=C(Cc1cccc(NC(=O)C2CCCN(C(=O)C3CCCC3)C2)c1)Nc1ccc(C(=O)N2CCOCC2)cc1 (centres undefined),1%,-7.8
CN(C)CCNC(=O)c1cccc2nc3c(ccc4ccccc43)nc12,3%,?
